NPYLR7 agonist: mosquito NPYLR7 agonism. HEK293T NPYLR7/Galpha15, GCaMP6s calcium fluorescence. activation, % at 10 µM. 270,000 compounds, 0.15% hits. AID 1259423; in the data active = activation above about 40%;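 note: 0% = vehicle and 100% = reference agonist at the receptor; some compounds past the cut are filed as inactive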
NPYLR7 agonist max-min: also measured in NPYLR7 agonist; calls as there; activation, %; measured here: Max-Min RFU normalised activation; some inactives read as strong as hits;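 span of the calcium signal over five minutes; 0% = vehicle and 100% = native peptide agonist; compound fluorescence can raise it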
* hit, by the source's call; & = joins results of further samples. An excerpt; count on the stated rates, not on these rows.

mol | NPYLR7 agonist max-min | NPYLR7 agonist
COCCCN(Cc1csc(COc2cc(C)cc(C)c2)n1)C(=O)c1ccc2c(c1)OCO2 | 30 | 16
COc1cc(Cl)c(C)cc1NC(=O)Cn1nc(SC)c(-c2nc(-c3ccccc3)no2)c1N | -25 | -20
O=C1CC2(CCN(C(=O)C/C=C/c3ccccc3)CC2)CN1 | -7 | -5
COc1cccc(CCc2nc3ccccc3c(=O)n2N)c1 | 15 | 24
COc1ccc2[nH]c3c(c2c1)CCN(C(=O)c1ccc(OC(F)(F)F)cc1)C3c1ccc(-c2ccccc2C(F)(F)F)o1 (stereo not drawn) | 15 | 25
Oc1cc(OCCN2CCN(Cc3ccc4c(c3)OCO4)CC2)ccc1-c1[nH]ncc1-c1ccccc1 | 1 | 3
Cc1cccc(NC(=O)N2CCC(Cc3ccc(F)cc3)CC2)c1 | -4 | 1
COc1ncccc1NC(=O)N(C)Cc1ccc(Cl)s1 | 5 | 7
COc1ccccc1/C=C1N=C(/C=C/c2ccc(Cl)cc2)OC/1=O | 2 | 6
O=C(O)c1cnn(-c2ccc(Cl)cc2)n1 | 11 | 14
O=C(NC1CC(=O)N(C2Cc3ccccc3C2)C1)c1cn2ccsc2n1 (stereo not drawn) | 3 | 7
CCC1(C2CCN(Cc3ccc(OC)cc3O)CC2)NC(=O)N(CCc2scnc2C)C1=O (stereo not drawn) | 6 | 21
COc1ccc(-c2ccccc2OC(C)C(N)=O)c(OC)c1 (stereo not drawn) | 4 | 7
COc1ccc(/C=C/CN2CCCCC2c2ccccn2)cc1 (stereo not drawn) | 0 | 18
Cc1oc2c(CN3CCN(C4CCS(=O)(=O)C4)CC3)c(O)ccc2c(=O)c1-c1ccccc1 (stereo not drawn) | 4 | 7
CCCCCCCOc1ccc(-c2nc(CCC)no2)cc1 | -10 | -5
CC(Oc1ccc(Cl)cc1Cl)C(=O)Nc1ccccc1I (stereo not drawn) | -12 | -5
COc1ccc(S(=O)(=O)NCCCn2ncccc2=O)cc1C | -13 | -10
CCOc1ccc(N2CCCn3c2nc2c3c(=O)n(CC(C)=O)c(=O)n2C)cc1 | 0 | 2
Cn1nnc(NC(=S)NC(=O)c2ccc3c(c2)OCO3)n1 | -3 | -1
COc1ccc(NC(=O)CCN(Cc2ccco2)c2nc(-c3ccco3)nc3ccccc23)cc1 | 4 | 4
CC(C)C(CN)N1CCN(C)CC1 (stereo not drawn) | 8 | 16
COC(=O)C1=C(NC(=O)/C=C/c2ccccc2)CCS1 | -1 | 0
O=C(CSc1nc2sc3c(c2c(=O)n1Cc1ccco1)CCC3)c1ccccc1 | -2 | -3
CCOC(=O)CCNC(=O)N1CCn2cccc2C1c1cc(OC)c(OC)c(OC)c1 (stereo not drawn) | 5 | 11

(cont.)
mol | NPYLR7 agonist max-min | NPYLR7 agonist
COc1ccc2c(c1)c(CC(=O)OCC(=O)O)c(C)n2C(=O)c1ccc(Cl)cc1 | 3&-4 | 8&-1
N#Cc1c(Cl)c2ccccc2n2c1nc1ccccc12 | -17 | -14
CSc1ccc(CC2(CCC(=O)N(C)Cc3cccc(-n4nc(C)cc4C)c3)CCC(=O)N2)cc1 (stereo not drawn) | 2 | 10
CCCc1c(C(=O)NCc2ccco2)cnn1-c1ccc(Cl)cc1 | 2 | -3
CCOC(=O)N1CCN(c2cc3cc(OC)ccc3oc2=O)CC1 | 8 | 8
CN1CCN(Cc2c(Cl)ccc(O)c2Cl)CC1C(=O)O (stereo not drawn) | -10 | -4
Cc1cc(C)nc(SCc2cc(=O)c(OC(=O)c3ccc(Cl)c([N+](=O)[O-])c3)co2)n1 | -4 | -6
O=C(CSc1nnc(COc2ccccc2Cl)n1C1CC1)NNC(=O)c1cccs1 | 5 | 0
COc1ccc(-c2cc3c(SCc4cccc(OC)c4)nccn3n2)cc1 | -9 | -3
c1ccc2oc(N3CCN(c4cnccn4)CC3)nc2c1 | 7 | 9
Cc1c(NC(=O)C(C)N2CCC(C)CC2)cccc1C(=O)NC(C)(C)C (stereo not drawn) | -3 | 3
O=C(c1cc2c(s1)CCCCC2)N1CCCC(Nc2ccc3c(c2)OCCO3)C1 (stereo not drawn) | 2 | 9
Cc1ccsc1CN(Cc1ccncc1)C1CCCC1 | -8 | -3
O=C(COc1ccc(Cl)cc1Cl)NCc1nnc(SCC(=O)N2CCc3ccccc32)n1-c1ccc(F)cc1 | -6 | -8
Cc1nc(C(C)C)ncc1C(=O)N1C[C@@H]2[C@H](C1)[C@H]1CC[C@@H]2O1 | 3 | -1
CNc1nc2cnc(Nc3cccnc3)cc2n1-c1cc(OC)c(OC)c(OC)c1 | -3 | 2
COc1ccc(C(=O)CSc2cc(C)nc3nc(C)nn23)cc1OC | 6 | 1
Cc1cc(C)c(S(=O)(=O)N2CCCC(C(=O)NC3CCCC[C@H]3NC(=O)c3ccccc3C)C2)c(C)c1 (stereo partly drawn) | -1 | 0
CC(CNC(=O)CSc1nnnn1C1CCCC1)Cn1ccnc1 (stereo not drawn) | 21 | 22
Cc1cc(C)c(NC(=O)C(C)N2CCCCC2)c(Cl)c1 (stereo not drawn) | 1 | 0
O=C(C[n+]1cc(Br)cc2ccccc21)c1ccc2c(c1)Cc1ccccc1-2 | 3 | -1
CN/C(=C\[N+](=O)[O-])NCCSCc1csc(CN(C)C)n1 | -15 | -13
CN(Cc1ccncc1)Cc1cc(-c2ccccc2)no1 | 3 | 5
COc1cc(/C=C2/C(=O)N(c3ccc(Cl)c(Cl)c3)N=C2C)cc(I)c1O | 10 | 5
CC(NC(=O)c1cccc(Cn2cccn2)c1)c1nnc2n1CCNCC2 (stereo not drawn) | -5 | 0

Random excerpt: six compounds from above.
mol | NPYLR7 agonist max-min | NPYLR7 agonist
COCCCN(Cc1csc(COc2cc(C)cc(C)c2)n1)C(=O)c1ccc2c(c1)OCO2 | 30 | 16
COc1cc(Cl)c(C)cc1NC(=O)Cn1nc(SC)c(-c2nc(-c3ccccc3)no2)c1N | -25 | -20
Cc1nc(C(C)C)ncc1C(=O)N1C[C@@H]2[C@H](C1)[C@H]1CC[C@@H]2O1 | 3 | -1
COc1ccc2[nH]c3c(c2c1)CCN(C(=O)c1ccc(OC(F)(F)F)cc1)C3c1ccc(-c2ccccc2C(F)(F)F)o1 (stereo not drawn) | 15 | 25
CCOc1ccc(N2CCCn3c2nc2c3c(=O)n(CC(C)=O)c(=O)n2C)cc1 | 0 | 2
COc1ncccc1NC(=O)N(C)Cc1ccc(Cl)s1 | 5 | 7

Continued.
mol | NPYLR7 agonist max-min | NPYLR7 agonist
CCOc1ccc(-c2nc(COC(=O)C3CCC(=O)N3)cs2)cc1OC (stereo not drawn) | -1 | -2
C=CCNc1nc(C(=O)OCc2cc(=O)n3ccsc3n2)cs1 | -3 | -4
C#Cc1ccc(NC(=O)C2(C)CCN2C(=O)c2cc(C)n(C)n2)cc1 (stereo not drawn) | -1 | 0
CC(C)NC(=O)CSc1cn(CC(=O)N2CCCCC2)c2ccccc12 | -6 | -2
CCCc1oncc1C(=O)NC1CC(=O)N(CCc2ccc(F)cc2)C1 (stereo not drawn) | 8 | 6
CN(C)C(CNc1ccc(C(=O)Nc2ccccc2)nn1)C1CC1 (stereo not drawn) | -5 | -5
CCC(=O)N(Cc1nccn1Cc1ccc(Cl)cc1Cl)CC(C)C | 10 | 6
C=CCCC(O)CN(CCc1nc(-c2cccc(C(F)(F)F)c2)no1)Cc1ccco1 (stereo not drawn) | 3 | 4
N#CCCN(Cc1cccnc1)Cn1nc(-c2ccc(Cl)cc2)n(CC2CCCO2)c1=S (stereo not drawn) | 11 | 3
O=S(=O)(Nc1ccc(F)c(Cl)c1)c1ccc(Cl)cc1F | 0 | 0
CN(C)CCN(C(=O)CCc1ccccc1)c1nc2ccc(F)cc2s1 | -10 | -5
CCn1cnnc1SCC(=O)Nc1cc(Cl)ccc1F | 1 | 4
O=C(CCCOCCc1ccccc1)N1CCC(O)(C(F)(F)F)C1 (stereo not drawn) | 3 | 4
CCOC(CN=Cc1c(O)n(-c2cccc(C(F)(F)F)c2)c(=O)c2ccccc12)OCC | -5 | -4
CSc1ccc(COc2coc(CN3CCCN(S(=O)(=O)c4c(C)c(C)c5c(c4C)CCC(C)(C)O5)CC3)cc2=O)cc1 | 12 | 22
CCN1CCN(C(=O)c2c(C)nn(Cc3ccccc3)c2C)CC1 | 19 | 9
N#Cc1c(NC(=O)CCn2cnc3cc(F)ccc3c2=O)sc2c1CCC2 | -2 | -3
COc1cc(/C=N/Nc2cc(N(C)C)nc(N(C)C)n2)ccc1O | -1 | 3
O=C(C1CC1)N1CCCC(OCc2cccc(OC(F)(F)F)c2)C1 (stereo not drawn) | 3 | -1
CNC(=O)COc1ccccc1C1Nc2ccc(Cl)cc2C(=O)N1C (stereo not drawn) | 10 | 10
O=C(NC1CCCc2ccccc21)c1ccccc1N1CCC(NS(=O)(=O)c2ccc(F)cc2)CC1 (stereo not drawn) | 22 | 26
C=CCN(Cc1cccc(OC)c1)C(=O)c1cccn1C | -2 | -1
O=C1NCCN1c1cccc(C(=O)N2CCc3c([nH]c4ccccc34)C2C2CCCCC2)c1 (stereo not drawn) | 1 | 14
COc1cc2c(cc1OC)C(c1ccccc1)N(C(=O)c1ccc(=O)n(C)n1)CC2 (stereo not drawn) | 3 | 10
CN(Cc1nccn1CC(F)(F)F)c1nc(C2CC2)no1 | 1 | 2

New compounds follow
mol | NPYLR7 agonist max-min | NPYLR7 agonist
CSC1=NC2=C(C(=O)CC(C)(C)C2)C(c2ccccc2[N+](=O)[O-])C1C#N (stereo not drawn) | 3 | 5
CC(C)NC(=O)C1CCN(C2CCN(C(=O)c3ccccc3F)CC2)CC1 | -4 | 1
O=C(NCCn1nc(-c2cccs2)ccc1=O)NC1CCCCC1 | -2 | -2
CCOC(=O)c1ccc2c(c1)nc(SCc1cc(C(F)(F)F)cc(C(F)(F)F)c1)n2CCOC | 6 | 5
Clc1ccc(N2CCN(c3nnnn3-c3ccccc3)CC2)cc1Cl | 3 | 5
CCCCCCCCCCCC(=O)Nc1ccc(N2CCCC2)c(C(=O)NC(C)C)c1 | 15 | 8
CCN1CCN(C(=O)c2ccc(N3CCC(NCc4cccc(-n5cccn5)c4)CC3)cc2)CC1 | -3 | 2
Cn1c(=O)n(Cc2ccc(Cl)cc2)c(=O)c2c1nc1oc(C(C)(C)C)cn12 | 7 | 1
COc1ccc(OC)c(-c2cnc(-c3ccc(CNC(=O)c4ccc(F)c(C(F)(F)F)c4)cc3)[nH]2)c1 | -8 | -5
CC(C)(C)CC(C)(C)Nc1c(-c2ccc(Cl)cc2)nc2ccc(Cl)cn12 | 8&27 | 12&13
CCn1cc(S(=O)(=O)N2C[C@@H]3C4CCC(CC4)[C@@H]3C2)cn1 | 4 | 4
Cn1c(=O)oc2cc(S(=O)(=O)N3CCc4ccccc43)ccc21 | 10 | 10
O=C(O)C1CN(S(=O)(=O)c2cc3ccccc3o2)CCN1 (stereo not drawn) | 2 | 4
Cc1cccnc1C1=NOC(C)(C)C(=O)N1Cc1cccc(F)c1 | -4 | 0
CCOC(=O)[C@@H]1CCCC[C@@H]1NC(=O)c1c(OC)cccc1OCc1ccccc1 | -14 | -7
O=C(NCc1cccs1)c1sc(=S)n2c1[nH]c(=O)c1sccc12 | 3 | 7
CCOCCCNC(=O)c1cc(NC(=O)c2ccccc2Br)ccc1N1CCC(C)CC1 | -2 | -5
Cc1ccc2c(-c3cccc(O)c3)cccc2n1 | 4 | 16
CC(=O)N1CCc2ccc(NC(=O)C3(c4ccccc4)CCOCC3)cc21 | -1 | -3
CCN(CC)C(=O)c1cc2ccc(F)cc2nc1C | 0 | 0
CC(C)N1CCC(N2CCN(CCCc3ccccc3)CC2CCO)CC1 (stereo not drawn) | 4 | 6
CC(NCc1ccccc1Br)c1ccc(-n2cncn2)cc1 (stereo not drawn) | 4 | 11
O=C(CN1CN(c2ccccc2)C2(CCN(C(=O)/C=C/c3ccc([N+](=O)[O-])cc3)CC2)C1=O)NC1CCCCC1 | 30 | 30
N#Cc1cc2c(=O)n3ccccc3nc2n(CCCN2CCOCC2)c1=N | -17 | -14
COc1cccc(Nc2nc(C(C)N)cs2)n1 (stereo not drawn) | -10 | -5

An excerpt from the list above, as a working copy:
mol | NPYLR7 agonist max-min | NPYLR7 agonist
CC(C)N1CCC(N2CCN(CCCc3ccccc3)CC2CCO)CC1 (stereo not drawn) | 4 | 6
CC(NCc1ccccc1Br)c1ccc(-n2cncn2)cc1 (stereo not drawn) | 4 | 11
O=C(CN1CN(c2ccccc2)C2(CCN(C(=O)/C=C/c3ccc([N+](=O)[O-])cc3)CC2)C1=O)NC1CCCCC1 | 30 | 30
N#Cc1cc2c(=O)n3ccccc3nc2n(CCCN2CCOCC2)c1=N | -17 | -14
COc1cccc(Nc2nc(C(C)N)cs2)n1 (stereo not drawn) | -10 | -5

More results.
mol | NPYLR7 agonist max-min | NPYLR7 agonist
O=C(NCCn1ccc2ccccc21)c1cn(CCc2ccccc2)nn1 | 8 | 20
Cc1cc(Cl)ccc1OCC(=O)N=Nc1c(O)[nH]c2ccc(Br)cc12 | -1 | -5
O=C(COCc1ccccc1)N1CCCN(c2nc3ccccc3nc2-c2ccccc2)CC1 | -3 | 1
COc1cccc(Cn2c(=O)c(C(=O)O)nn(-c3ccc(Cl)cc3)c2=O)c1 | 13 | 15
CCN(CC)c1ncnc(N2CCC(c3ccccc3)CC2)c1N | 2 | 7
COc1ccc(N2C(=O)CC(NCc3cccnc3)C2=O)cc1 (stereo not drawn) | -13 | -8
CC(C)c1c(C(=O)N2CCCC2)cnn1C(C)(C)C | 3 | 0
COc1ccc2c(c1)C=C(CN(C)Cc1cc(-c3ccncc3)no1)CO2 | 0 | 2
C=CCNc1ccccc1C(=O)N(C)Cc1nc(-c2ccncc2)no1 | 5 | 7
